Source: PubChem BioAssay
HIV TAR-Tat: HIV-1 TAR-Tat binding disruption. HIV-1 TAR RNA, Tat peptide displacement FRET; hits give high values. z-score (concentration not given with the values). 100,000 tested, 0.6% active;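 note: score is relative to mean and SD of negative controls; some compounds called inactive have numbers as strong as hits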
CDC25B CDK2 inh: human CDC25B-CDK2/CyclinA binding inhibition; P30305+P24941; HTRF CDC25B-CDK2/CyclinA binding, anti-His/anti-Flag; hits give high values; z-score (test concentration not listed); 94,000 tested, 0.72% active; AID 1259370;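 note: score is relative to mean and SD of negative controls; strong numbers were not always called active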
An asterisk follows results filed as active; nt = no result given.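 Rule for the calls: active = z-score from 3 up in half or more of its runs; inactive = the rest.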

Under each structure – HIV TAR-Tat, CDC25B CDK2 inh
- CCOc1ccc(N=CNc2ccc(OCC)cc2)cc1
  nt, -0.24
- OC(CN1CCC(Cc2ccccc2)CC1)c1c[nH]c2ccc(F)cc12 (stereo not drawn)
  -1.4, -0.14
- CC(NS(=O)(=O)c1ccc(F)cc1)C(c1cccs1)N1CCN(c2ccccc2F)CC1 (stereo not drawn)
  nt, -1.3
- CCCSc1nc(=O)n(C2CCCCC2)c2c1CCC2
  0.09, -2.5
- O=C(CN1C(=O)COc2ccc(S(=O)(=O)N3CCCCC3)cc21)N1CCOCC1
  -1.3, nt
- CCN1/C(=C/c2sc3ccccc3[n+]2CCO)Sc2ccccc21
  1.7, -1.2
- COc1cccc(-c2nc3c(C#N)c[nH]n3c2NC2CCCCC2)c1
  0.64, -2
- CCn1nnc(NCc2ccc(OCc3ccc(C)cc3)c(OC)c2)n1
  0.85, nt
- CC1CSc2ccc(S(=O)(=O)Nc3ccc4c(c3)OCCO4)cc2NC1=O (stereo not drawn)
  0.93, nt
- CC(Sc1nnc(-c2cccc(NC(=O)c3cccc4ccccc34)c2)n1C)C(=O)O (stereo not drawn)
  nt, -1.1
- O=C(CC1COc2ccc(Cl)cc2NC1=O)Nc1ccc(F)cc1 (stereo not drawn)
  -0.34, nt
- CCOC(=O)c1ncn(-c2ccccc2)n1
  0.55, -1.9
- CC1CSc2ccc(S(=O)(=O)N3CCc4ccccc4C3)cc2NC1=O (stereo not drawn)
  2.1, nt
- Cc1nc2scc(C)n2c(=O)c1S(=O)(=O)Nc1ccc(F)cc1Cl
  1.2, -0.65
- Cc1nc2sc3c(N4CCCC4)ncnc3c2c2c1COC(C)(C)C2
  -0.06, 0.3
- O=C(NC1CCCC1)C1CCN(c2ncnc3c2sc2cccc(F)c23)CC1
  nt, -1.7
- Cn1cnc(S(=O)(=O)NCCc2ccccc2)c1
  1, nt
- CCOC(=O)c1nnn(-c2nonc2N)c1CN1CCN(CCO)CC1
  nt, -1.5
- COC(=O)c1[nH]c2sc3c(c2c1NC(C)=O)CCCC3
  -0.25, 4.7
- O=C(CSc1nc(-c2ccco2)nc2cc(=O)[nH]n12)NCc1ccccc1Cl
  1.5, nt
- COc1ccc(S(=O)(=O)Nc2cc3c(cc2N2CCOCC2)n(C)c(=O)c(=O)n3C)cc1Cl
  0.81, 0.19
- NC(=S)N/N=C/c1ncc(C(F)(F)F)cc1Sc1ccc(Cl)cc1
  nt, -0.41
- CCOC(=O)C1(CCCCCCOc2ccc(Cl)cc2)CO1 (stereo not drawn)
  -0.25, nt
- Cc1c(C(=O)N(C)C2CCCCC2)sc2nc(-c3ccc(F)cc3)cn12
  -1.7, -1.7
- Cc1cc(C)n(Cc2c(C(=O)NCCCN3CCCC3)noc2C)n1
  -0.29, nt
- CCc1c(O)nc(SCCN(CC)CC)[nH]c1=O
  0.83, -0.41
- Clc1ccccc1C1CC(c2ccccc2)Nc2nnnn21 (stereo not drawn)
  1.6, nt
- COc1ccc(NS(=O)(=O)c2ccsc2C(=O)O)cc1
  -0.35, -0.98
- CCOC(=O)c1csc(-c2sccc2Br)n1
  nt, -2.8
- O=C(c1nc(-c2ccccc2)n(-c2ccccc2)n1)N1CCCCC1
  nt, -3

Some of the entries so far, field by field.
SMILES: Cc1nc2sc3c(N4CCCC4)ncnc3c2c2c1COC(C)(C)C2
  HIV TAR-Tat: -0.06 | CDC25B CDK2 inh: 0.3

SMILES: O=C(NC1CCCC1)C1CCN(c2ncnc3c2sc2cccc(F)c23)CC1
  HIV TAR-Tat: nt | CDC25B CDK2 inh: -1.7

SMILES: Cn1cnc(S(=O)(=O)NCCc2ccccc2)c1
  HIV TAR-Tat: 1 | CDC25B CDK2 inh: nt

Next entries follow.
Under each structure – HIV TAR-Tat, CDC25B CDK2 inh
- O=C(c1cnn(-c2ccccc2)c1-n1cccc1)N1CCc2ccccc2C1
  0.3, -1.1
- COc1ccc2ncc(-c3ccc(Cl)c(C)c3)nc2c1
  nt, -1.3
- CC(C)c1ccc(N2CC(O)=C(c3nc4ccccc4[nH]3)C2=N)cc1
  2.1, 2.4
- CS(=O)(=O)Nc1csc(C(F)(F)F)c1-c1ccccc1
  nt, -1.7
- Cc1nnc(N2C(=O)c3ccc(-c4nc5ccccc5c(=O)o4)cc3C2=O)s1
  nt, 1.7
- COc1ccc(NC(=O)N2CCOc3ccccc32)cc1OC
  2.1, nt
- CC(C)c1cc(-c2nc(-c3cccnc3)no2)n[nH]1
  0.47, nt
- COC(=O)c1c(C)[nH]c(C(=O)CSc2nnc3cc(C)c4ccccc4n23)c1C
  nt, 0.13
- CS(=O)(=O)c1ncc(Cl)c(C(=O)NCc2ccc3c(c2)OCO3)n1
  1.2, 0.87
- Cc1ccc(C(=O)O)cc1-n1cnc2cccnc21
  -0.14, 1.9
- Cc1nn(CC(=O)NCCC(C)C)c(=O)c2cc3sccc3n12
  2.3, -1.1
- CC1CSc2ccc(S(=O)(=O)NCCCN3CCCC3=O)cc2NC1=O (stereo not drawn)
  0.56, nt
- CC1CCC(NC(=O)C2(C)Cn3c(cc4sccc43)C(=O)N2Cc2cccs2)CC1 (stereo not drawn)
  1.2, -1.3
- O=C(Nc1cccnc1)c1c(O)c2cccc3c2n(c1=O)CC3
  1.4, nt
- CC1=C(C(=O)OC(C)C)C(c2ccc(F)cc2)n2c(nc3ccccc32)N1 (stereo not drawn)
  2.9, -2.2
- O=C(Nc1nnc2n1CCS2)c1ccc(F)c(F)c1
  0.62, nt
- Cc1cn2c(=O)cc(CSc3n[nH]c(-c4ccccc4)n3)nc2s1
  0.53, nt
- COc1cccc(-c2nnc(SC)o2)c1
  2.2, -1.9
- CCOC(=O)N1CCN(c2cc(=O)n(C)c(=O)n2C)CC1
  nt, -1
- CN(CC(=O)Nc1ccc2c(c1)OCO2)S(=O)(=O)c1ccc2c(c1)c(=O)n(C)c(=O)n2C
  nt, 0.55
- Cc1ccc(C2CC(c3ccc(F)cc3)n3nnnc3N2)cc1 (stereo not drawn)
  2.2, nt
- C=CCOc1ccc(CNCCSc2nnnn2-c2ccccc2)cc1
  0.72, -0.29
- CCCn1c(=O)c2c(nc3n2CCN3c2cc(C)cc(C)c2)n(C)c1=O
  1.8, nt
- CCC(C(=O)N1CCC(N2CCCCC2)CC1)n1nc(C)c2sc3ccccc3c2c1=O (stereo not drawn)
  0.62, -3.2
- O=S(=O)(CCN(Cc1ccccc1Cl)S(=O)(=O)c1ccccc1)N1CCNCC1
  0.95, nt
- CCOC(=O)c1nnn(-c2nonc2N)c1COc1cccc(C)c1C
  -0.06, -0.84
- O=C(NCc1ccc(-c2ccc(F)cc2F)o1)c1ccc(Cl)cc1
  nt, -2.6
- COCCn1c(Cc2cccn2C)nnc1SCC(N)=O
  -2.6, -0.66
- O=C(CSc1ncnc2c1sc1cccc(F)c12)NC1CCCC1
  0.07, nt
- c1ccc(-c2noc(-c3ccccc3)n2)cc1
  nt, -1.6
- COc1ccc(-c2ccc(NS(=O)(=O)c3ccccc3)cc2)nn1
  0.99, nt
- O=S(=O)(NCC1COc2ccccc2O1)c1ccccc1 (stereo not drawn)
  -0.69, 0.77
- CCN(CCNS(=O)(=O)c1ccc2[nH]c(=O)sc2c1)c1ccccc1
  nt, -1.7
- COC(=O)c1sccc1S(=O)(=O)NCc1ccc(S(N)(=O)=O)cc1
  nt, -4.8
- Cc1cc(NC(=O)C(C)C)cc(-c2nc3ncccc3o2)c1O
  -8.1, 1.8
- O=C(c1ccco1)N(Cc1ccc(Cl)cc1)Cc1ccco1
  -0.13, -1.7
- Cc1ccc(CNC(=O)c2nc3c(nnn3CC3CCCO3)c(=O)[nH]2)cc1 (stereo not drawn)
  1.1, 0.47
- CCC1CCCCN1CCCNc1ncnc2onc(-c3ccc(Cl)cc3)c12 (stereo not drawn)
  -0.19, -2.5
- Cc1cc2n(n1)CCCN2CC(=O)N1CCOCC1
  0.92, nt
- CCCn1cc(S(=O)(=O)c2ccc(CC)cc2)c(=O)c2cc(Cl)ccc21
  1.1, 1.1
- O=C(O)CSc1nc(-c2cccs2)cc(C(F)(F)F)n1
  -1.1, 0.71
- COc1ccc(-c2cc(N)n(S(=O)(=O)c3ccc(C(C)(C)C)cc3)n2)cc1OC
  0.23, -1.1
- CC(C)OCCCNC(=O)C1c2c(n(C)c3ccccc23)SCC(=O)N1CCC1=CCCCC1 (stereo not drawn)
  0.53, nt
- Cc1cc(=O)[nH]c2c1c(=O)[nH]n2C1CCCCCC1
  nt, 0.01
- CN(C(=O)CCc1nc(CN2CCN(C(=O)c3noc4c3CCCC4)CC2)no1)C1CCCCC1
  -0.94, nt
- Cc1nc(Nc2nc3ccccc3o2)nc(C)c1C
  -0.22, -0.87
- O=C(C1CCCN(c2ncnc3c2nc2n3CCCCC2)C1)N1CCc2ccccc21 (stereo not drawn)
  -0.15, nt
- CC1(C)Cc2c(C#N)c(SCCc3ccccc3)nc(N3CCOCC3)c2CO1
  nt, -0.09
- Cc1[nH]c2ccccc2c1CCNCc1ccc(/C=C/C(=O)NO)cc1
  2.1, nt
- O=C(CCCn1c(=S)[nH]c2ccc(Br)cc2c1=O)N1CCOCC1
  nt, -2
- CC(=O)NCc1cn2c(C)csc2n1
  2.4, -1.4
- O=C(NCC1CCCO1)Nc1ccc2c(c1)N(Cc1ccccc1)C(=O)c1ccccc1S2 (stereo not drawn)
  0.95, 1.6
- OCc1cnc(SCc2cccc(Cl)c2)n1Cc1ccc(F)cc1
  0.56, nt
- CC(=O)c1ccc(C2CC2(Cl)Cl)cc1 (stereo not drawn)
  nt, 0.43
- Cc1cc(C(=O)C(=O)Nc2nncs2)c(C)n1-c1ccc(Cl)cc1
  2.6, -3.4
- Cc1cccc(C2CC(=O)Nc3c(-c4ccccc4)csc32)c1 (stereo not drawn)
  2.9, nt
- COc1ccc(-c2nnc(SCC(=O)Oc3cc(C)ccc3C)o2)cc1
  1.3, -3.3
- Nc1cccc(S(=O)(=O)NC2CCCCC2)c1
  2.4, -2.5
- COc1ccc(OC)c(NC(=O)c2cc3c(s2)-c2ccc(Cl)cc2S(=O)(=O)C3)c1
  0.97, 0.33
- CCNc1nc(NCC)c2cnn(C)c2n1
  1.1, nt

Two of the compounds above, field by field:
> Cc1cc2n(n1)CCCN2CC(=O)N1CCOCC1
  HIV TAR-Tat: 0.92
  CDC25B CDK2 inh: nt
> CCCn1cc(S(=O)(=O)c2ccc(CC)cc2)c(=O)c2cc(Cl)ccc21
  HIV TAR-Tat: 1.1
  CDC25B CDK2 inh: 1.1

Next section
Under each structure – HIV TAR-Tat, CDC25B CDK2 inh
- Cc1cc(N)c(-n2cc3c(c2-c2ccc(Br)cc2)c(=O)n(C)c(=O)n3C)cc1C
  0.26, 0.24
- COc1cc2c(cc1OC)CN(S(=O)(=O)c1ccc(-n3cnnn3)cc1)CC2
  0.79, -0.5
- COc1ccc(N2CCC(CNC(=O)Nc3ccc(OC)cc3OC)C2)cc1 (stereo not drawn)
  -0.08, nt
- Cc1[nH]c(=O)[nH]c(=O)c1S(=O)(=O)N1c2ccccc2CC1C (stereo not drawn)
  -11, nt
- CC1Sc2ccc(S(=O)(=O)N3CCc4ccccc4C3)cc2NC1=O (stereo not drawn)
  2.9, nt
- CCN(CC)c1ccc2nnc(CCC(=O)NC3CCCCC3)n2n1
  0.39, nt
- CC(C)Nc1cc(N2CCC(=O)CC2)c2noc3c2c1C(=O)c1ccccc1-3
  -6.4, -2
- COc1cnc(CSc2nnnn2C)cc1OCC(=O)NC(C)C
  1.3, nt
- CC(=O)Oc1ccccc1C(=O)Oc1ccccc1C(=O)O
  0.47, nt
- CN(C)CCCN(C(=O)c1ccco1)c1nc2c(F)cccc2s1
  1.7, nt
- COc1ccccc1-c1noc2ncnc(NCCCN3CCCC3)c12
  0.51, nt
- O=C(Nc1nnc(CCSc2ccc3ccccc3c2)s1)c1ccco1
  0.52, 0.18
- O=C(NCc1n[nH]c(=O)c2ccccc12)c1cc(Br)ccc1Cl
  0.87, nt
- CCn1nc(C)c(CCNC(=O)Nc2cc(C)cc(C)c2)c1C
  2.4, nt
- COc1ccc(OC)c(S(=O)(=O)Nc2ccc(-c3ccc4cc(C)ccc4n3)cc2)c1
  0.52, nt
- O=C(Nc1cc(C(F)(F)F)ccc1N1CCc2ccccc2C1)c1cccs1
  nt, 0.54
- CS(=O)(=O)c1ccc(-c2cccc(NS(=O)(=O)c3cccc(Cl)c3)c2)nn1
  0.74, nt
- CSc1ccc(CCNC(=O)CCc2nnc3ccc(N4CCCC4)nn23)cc1
  -0.61, nt
- Fc1ccc(-n2ncc3c(NCc4ccccc4Cl)ncnc32)cc1
  -0.24, nt
- CCOC(=O)c1ccc(N2CSC3=C(C#N)C(c4cccs4)CC(=O)N3C2)cc1 (stereo not drawn)
  -3.1, 7.1*
- CCCCCCCCSc1nnc(/N=C/N(C)C)s1
  nt, -0.67
- Cc1ccc(S(=O)(=O)NC(C)c2ccccc2)cc1-c1nnc2c3ccccc3c(C)nn12 (stereo not drawn)
  -0.85, -2
- COC(=O)CSCc1nc(-c2ccc(C(=O)OC)cc2)oc1C
  1.1, nt
- O=S(=O)(NCCc1ccccc1)c1ccc(N2CCCCS2(=O)=O)cc1
  -0.23, nt
- COC(=O)C1=C(C)N(C)C(C)=C(C(=O)OC)C1c1ccncc1
  nt, -0.77
- CCOC(=O)CCC(=O)Nc1sc2c(c1C(=O)OCC)CCCC2
  0.66, -1.1
- Cc1c(Br)c([N+](=O)[O-])nn1CC(=O)N1CCN(C)CC1
  1.2, -1.5
- Cc1ccc2nc(-c3cccc(S(=O)(=O)N(C)C)c3)cn2c1
  -1.2, -0.41
- NC(=O)C1CCN(C(=O)CCc2nc3sc4c(c3c(=O)[nH]2)CCCCC4)CC1
  19*, nt
- CCOC(=O)C(C)(C)Sc1nc2c(cnn2-c2ccc(F)cc2)c(=O)[nH]1
  nt, -0.27
- O=C(O)CCCCCCN=C1NC(=O)CS1
  0.59, -0.58

Rows were taken by chance; about 0.87% have a hit in one of these screens.
